Screening data from PubChem BioAssay.
ClpP mod: qHTS Assay for Activators of ClpP; ATP-dependent Clp protease proteolytic subunit (Bacillus subtilis (strain 168)), P80244; purified B. subtilis ClpP, FRET peptide cleavage, 20 min; Potency, µM (series often up to 57.5 µM), for the others: at the highest dose activity change, negative = active; actives 1.9% (n = 340,000); AID 651965, 2013; active = well fitted falling curve with a large enough effect; inconclusive = small, poorly fitted or top-dose-only effect; inactive = no such curve, though single readings can be large or run the other way; note: potency is the fitted concentration of half-maximal effect; the source files actives as falling curves though it sought activators and does not explain the sign; nearly all actives have a fitted effect of over 65% in size; many hits overshoot -100%
Target sequence (P80244 whole entry, looked up): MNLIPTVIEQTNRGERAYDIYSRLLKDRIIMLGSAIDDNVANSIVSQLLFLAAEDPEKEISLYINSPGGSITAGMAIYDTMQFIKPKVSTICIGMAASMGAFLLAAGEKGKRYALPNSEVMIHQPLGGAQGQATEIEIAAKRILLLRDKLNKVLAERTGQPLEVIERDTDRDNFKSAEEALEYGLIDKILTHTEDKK
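Purified B. subtilis ClpP, 10 microg/mL final in Tris/HCl pH8 with KCl, BSA, glycerol and Tween-20, cleaved an Abz/nitrotyrosine-quenched decapeptide. Fluorescence (ex 320, em 430) was read at 0 and 20 min at room temperature. Delta was normalized to 5.8 microM ADEP and DMSO/no-enzyme controls.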
CtBP-E1A blk: CtBP/E1A binding inhibition; AlphaScreen GST-E1A/His-CtBP binding, 1536-well; stronger effect = lower value; control for the full effect not named in the record; activity change, % (concentration not given with the values); actives 0.49% (n = 340,000); AID 651724; in the data active means activity change below about -65%; inconclusive means about -30% to -65%; inactive means above about -30%; note: % is set by controls: 0 for no effect and ±100 for the full control effect
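Steps: dispense buffer (Tris pH 8.0, NaCl 300 mM, TCEP 1 mM, BSA, Tween 20); add 5X protein mix (GST-E1A, His-CtBP, 125 nM each); pin 23 nL compound; 2 h at 37 °C, dark; add 5X beads (50 ug/mL); 1 h; read.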
Active calls of the source: *.

CC1(C(=O)NS(=O)(=O)c2cccc(Cl)c2)CCN1C(=O)c1ccccc1CCc1ccccc1 (stereo unspecified) was read as ClpP mod -3.3% and CtBP-E1A blk 9.4.
`O=c1[nH]c(=S)[nH]c2c1C(c1ccc(F)cc1)OC(CCOCc1ccccc1)C2` (stereo unspecified) gave ClpP mod -1.2% and CtBP-E1A blk 3.9.
For CC(C)N1CC(=O)N2CSCC2C1=O (stereo unspecified) the results were ClpP mod 0.0% and CtBP-E1A blk 10.6.
Screening CCCNC(=O)C1(C)CCN(C(=O)c2sccc2C)C1 (stereo unspecified) returned ClpP mod -2.0% and CtBP-E1A blk -2.8.
CSCCC(c1nc2ccccc2[nH]1)n1c(=O)c(-c2cccnc2)nc2ccccc21 (stereo unspecified) was read as ClpP mod -10.2% and CtBP-E1A blk -19.4.
For CCCCNC(=O)C1(C)CCCCN1C(=O)c1ccc2c(c1)C(C)(C)CCC2(C)C (stereo unspecified) the results were ClpP mod -1.6% and CtBP-E1A blk 0.0.
O=[N+]([O-])c1nccn1CCCCCCN1CCOCC1 was read as ClpP mod -4.7% and CtBP-E1A blk 6.1.
Screening CCOC(=O)C1(C)CCCN(C(=O)c2cccc(C(F)(F)F)c2)C1 (stereo unspecified) returned ClpP mod 2.3% and CtBP-E1A blk 14.5.
`Cc1c(C(=O)NCc2cccs2)sc(=O)n1Cc1ccc(S(=O)(=O)N(C)C)cc1` gave ClpP mod -0.4% and CtBP-E1A blk 0.2.
Screening COc1ccc(C(C(=O)NC(C)(C)C)n2c(=O)c(-c3ccco3)nc3ccccc32)cc1 (stereo unspecified) returned ClpP mod inconclusive and CtBP-E1A blk -4.1.
O=C(N[C@@H]1CC[C@@H](CCn2cc(-c3ccccc3)nn2)O[C@@H]1CO)c1cnccn1 was read as ClpP mod -0.9% and CtBP-E1A blk 4.2.
Cc1cc(Br)cn2c(Cc3ccccc3)c(-c3ccc(Cl)cc3)nc12 was read as ClpP mod -2.5% and CtBP-E1A blk -6.8.
`CCCc1nc2ccccc2n1C(CCSC)C(=O)NC(C)(C)C` (stereo unspecified) gave ClpP mod 0.8% and CtBP-E1A blk -2.2.
Screening CCC(c1nc2ccccc2[nH]1)n1c(=O)c(-c2cccs2)nc2ccccc21 (stereo unspecified) returned ClpP mod 3.8% and CtBP-E1A blk 5.2.
`CCC(=O)N1CCC1(C)C(=O)Nc1ccc2c(c1)OCO2` (stereo unspecified) gave ClpP mod -2.6% and CtBP-E1A blk -18.3.
For CC(=O)Nc1cncc(-c2ccccc2C(C)=O)n1 the results were ClpP mod -8.7% and CtBP-E1A blk 1.6.
For O=C(C[C@@H]1CC[C@@H](NC(=O)Nc2cccc(F)c2)[C@@H](CO)O1)NCC1CCCCC1 the results were ClpP mod -2.4% and CtBP-E1A blk 7.7.
`CCS(=O)(=O)NC(=O)C1(C)CCN1C(=O)C1(c2ccc(Cl)cc2)CC1` (stereo unspecified) gave ClpP mod 0.6% and CtBP-E1A blk 4.3.
`CCOC(=O)CC1(CCc2ccccc2)Oc2ccccc2N1S(=O)(=O)c1ccc(C)cc1` (stereo unspecified) gave ClpP mod -4.5% and CtBP-E1A blk -16.6.
O=C(NCc1ccccc1Cl)c1ccc2nc([C@@H]3O[C@H](CO)[C@H](O)[C@H](O)[C@H]3O)[nH]c2c1 was read as ClpP mod -0.1% and CtBP-E1A blk -7.2.
For CCC(CC)CN1CCC(CN2C(=O)C(=O)NC[C@@H]2CC(C)C)CC1 the results were ClpP mod -2.2% and CtBP-E1A blk -4.8.
For Cc1cc(C(=O)N2CCC2(C)C(=O)NS(=O)(=O)c2ccc(F)cc2F)nn1C (stereo unspecified) the results were ClpP mod -19.3% and CtBP-E1A blk 6.7.
COc1ccccc1Cc1c(-c2ccc(F)cc2)nc2cc(C)c(Br)c(C)n12 was read as ClpP mod -3.2% and CtBP-E1A blk -0.1.
`Fc1ccc(-c2nc3c(Cl)cc(C(F)(F)F)cn3c2Cc2cccc(F)c2)cc1` gave ClpP mod inconclusive and CtBP-E1A blk -19.9.
NC(Cc1ccccc1)c1csc(Nc2nncc3ccccc23)n1 (stereo unspecified) was read as ClpP mod -0.4% and CtBP-E1A blk inconclusive.
`CC1(C(=O)NS(=O)(=O)c2ccc(Cl)cc2)CCN1C(=O)Cc1cc(F)ccc1F` (stereo unspecified) gave ClpP mod -0.8% and CtBP-E1A blk 8.3.
`CC(C)(C)c1ccc(C(O)c2ncc(-c3cccc(F)c3)[nH]2)cc1` (stereo unspecified) gave ClpP mod -3.4% and CtBP-E1A blk inconclusive.
CC(C)NC(=O)C1C(c2ccc(C(F)(F)F)cc2)=Nc2ccccc2N1C(=O)c1cccc(C(F)(F)F)c1 (stereo unspecified) was read as ClpP mod -9.6% and CtBP-E1A blk 9.4.
For CC(C)NC(=O)C1(C)CSCC(=O)N1Cc1ccco1 (stereo unspecified) the results were ClpP mod 1.1% and CtBP-E1A blk 1.4.
For FC(F)(F)c1cc(Cl)c2nc(-c3ccccc3)c(Cc3ccsc3)n2c1 the results were ClpP mod -11.8% and CtBP-E1A blk -21.3.
CC1(C(=O)NS(=O)(=O)c2ccc(F)cc2F)CCN1C(=O)Cc1ccc(-c2ccccc2)cc1 (stereo unspecified) was read as ClpP mod -0.7% and CtBP-E1A blk 0.1.
Screening CO[C@H]1CN(C)C(=O)c2ccc(NC(=O)c3ccc4c(c3)OCO4)cc2OC[C@H](C)N(CC2CC2)C[C@@H]1C returned ClpP mod -1.9% and CtBP-E1A blk 5.8.
Screening COc1ccc(CN2C(=O)CCC2(C)c2nnnn2-c2ccc3c(c2)OCCO3)cc1OC (stereo unspecified) returned ClpP mod -0.5% and CtBP-E1A blk 2.8.
Screening CCC(=O)N1CCC1(C)C(=O)Nc1ccccc1 (stereo unspecified) returned ClpP mod 0.5% and CtBP-E1A blk 10.8.
Screening O=C(NCC1CC1)C1Cc2c(-c3cccc(F)c3)ccnc2O1 (stereo unspecified) returned ClpP mod -10.9% and CtBP-E1A blk 7.6.
Cc1ccc(Cn2cc(CN3CC(N4CCN(CCN(C)C)CC4)CS3(=O)=O)nn2)cc1 (stereo unspecified) was read as ClpP mod -0.3% and CtBP-E1A blk 5.3.
Screening O=C1NC[C@@H](CCCCN2C[C@H](Cc3ccc(O)cc3)N(CCC3CCCCC3)C(=O)C2=O)N(CCc2ccc(O)cc2)C1=O returned ClpP mod -1.3% and CtBP-E1A blk 0.9.
`CC1(C(=O)Nc2ccc(F)c(Cl)c2)Cc2c(-c3ccc(C(N)=O)cc3)ccnc2O1` (stereo unspecified) gave ClpP mod -10.8% and CtBP-E1A blk -26.2.
Screening CC(C)C(N)c1csc(Nc2ccc(C(=O)NCCCO)cn2)n1 (stereo unspecified) returned ClpP mod inconclusive and CtBP-E1A blk -74.8*.
`COc1ccc(N2C(c3cc(OC)cc(OC)c3)=Cc3ccccc3C2CC(C)=O)cc1` (stereo unspecified) gave ClpP mod inconclusive and CtBP-E1A blk 13.1.
`CC1(C(=O)Nc2ccc3c(c2)OCO3)CCN1Cc1cccc2c1OCO2` (stereo unspecified) gave ClpP mod 0.0% and CtBP-E1A blk -18.6.
Screening CC(C)(O)C#Cc1ccc(CNC[C@H]2O[C@@H](n3cnc4c(=O)[nH]c(N)nc43)[C@H](O)[C@@H]2O)s1 returned ClpP mod 0.2% and CtBP-E1A blk 3.3.
Screening CC1(Oc2ccc(-n3ccnc3)cc2)CCN(Cc2cccn2-c2nccs2)C1 (stereo unspecified) returned ClpP mod 0.3% and CtBP-E1A blk -16.6.
`CCOC(=O)C(=O)N(C)c1c(CC)nc2c(OCc3ccc(OC(F)F)cc3)cccn12` gave ClpP mod -0.2% and CtBP-E1A blk -3.1.
CCCC(=O)N1CCC1(C)C(=O)NS(=O)(=O)c1ccc(F)cc1F (stereo unspecified) was read as ClpP mod -10.6% and CtBP-E1A blk -0.1.
CCC1(C2C=COC=C2)NC(=O)NC1=O (stereo unspecified) was read as ClpP mod -1.0% and CtBP-E1A blk 4.9.
`CC(C)c1cc(C(C)C)c(S(=O)(=O)NC(c2ccccn2)C23CC2C3)c(C(C)C)c1` (stereo unspecified) gave ClpP mod -24.4% and CtBP-E1A blk inconclusive.
Cc1ccccc1N=C(c1ccccc1)C1C(=O)c2ccccc2C1=O was read as ClpP mod 1.4% and CtBP-E1A blk -14.5.
Screening COc1ccc([C@H]2CC(=O)C[C@@H](CCn3cc(-c4ccc(F)cc4)nn3)O2)cc1 returned ClpP mod 3.8% and CtBP-E1A blk 0.9.
`CN(C)CCCOc1ccc(-c2ccc3nncn3c2)cn1` gave ClpP mod -23.1% and CtBP-E1A blk 0.4.
For N#CC(=Cc1ccc(-c2ccccc2)cc1)C(=O)c1ccccc1 the results were ClpP mod -8.2% and CtBP-E1A blk 8.6.
For COc1cc(NC(=O)C2(C)CCN2C(=O)C(C)C)cc(OC)c1OC (stereo unspecified) the results were ClpP mod 1.6% and CtBP-E1A blk 3.5.
COc1ccc(C(C)(O)c2nc(-c3cccc(C(C)C)c3)cs2)cc1 (stereo unspecified) was read as ClpP mod -2.8% and CtBP-E1A blk 7.1.
CC(C)C[C@@H](CN1CCC[C@@H]1CN1C(=S)NC[C@@H]1Cc1ccccc1)N1C[C@H](Cc2ccc(O)cc2)N(CCc2ccccc2)C1=S was read as ClpP mod 0.3% and CtBP-E1A blk -4.9.
CCCCNC(=O)C(NC(=O)c1cccnc1OC)C(=O)c1ccccc1 (stereo unspecified) was read as ClpP mod -1.1% and CtBP-E1A blk -10.9.
`O=C(NCc1ccccc1Cl)[C@H]1CCCN1C(=O)[C@H]1CCCN1C(=O)c1cccc2ccccc12` gave ClpP mod 0.1% and CtBP-E1A blk 4.0.
`CC(NC(=O)c1cccc2c1Oc1ccccc1S2)C(=O)O` (stereo unspecified) gave ClpP mod -9.1% and CtBP-E1A blk -23.4.
For O=C(NCC[C@@H]1CC[C@@H](NC(=O)c2cnccn2)[C@@H](CO)O1)c1ccc2c(c1)OCO2 the results were ClpP mod -3.6% and CtBP-E1A blk 4.5.
Screening CC(C)C[C@H]1CN([C@@H](Cc2ccccc2)CN2CCC[C@@H]2CN2C(=O)C(=O)NC[C@@H]2Cc2ccccc2)C(=O)C(=O)N1CC1CCCCC1 returned ClpP mod -6.0% and CtBP-E1A blk -5.8.
For O=C1O[C@@H](c2ccccc2)C[C@@H](O)C(=O)CCCc2ccccc21 the results were ClpP mod 0.7% and CtBP-E1A blk 1.7.

6 entries from above, ordered by molecular weight, descending:
Screening CC(C)C[C@H]1CN([C@@H](Cc2ccccc2)CN2CCC[C@@H]2CN2C(=O)C(=O)NC[C@@H]2Cc2ccccc2)C(=O)C(=O)N1CC1CCCCC1 returned ClpP mod -6.0% and CtBP-E1A blk -5.8.
`O=C(NCc1ccccc1Cl)[C@H]1CCCN1C(=O)[C@H]1CCCN1C(=O)c1cccc2ccccc12` gave ClpP mod 0.1% and CtBP-E1A blk 4.0.
CCCCNC(=O)C(NC(=O)c1cccnc1OC)C(=O)c1ccccc1 (stereo unspecified) was read as ClpP mod -1.1% and CtBP-E1A blk -10.9.
COc1ccc(C(C)(O)c2nc(-c3cccc(C(C)C)c3)cs2)cc1 (stereo unspecified) was read as ClpP mod -2.8% and CtBP-E1A blk 7.1.
Cc1ccccc1N=C(c1ccccc1)C1C(=O)c2ccccc2C1=O was read as ClpP mod 1.4% and CtBP-E1A blk -14.5.
CCC1(C2C=COC=C2)NC(=O)NC1=O (stereo unspecified) was read as ClpP mod -1.0% and CtBP-E1A blk 4.9.

Remaining list, next part
Screening CC(=O)Nc1cccc(Oc2nc(NCC3CC3)nc3ccsc23)c1 returned ClpP mod 4.0% and CtBP-E1A blk 2.4.
CC(C)C[C@H]1CNC(=S)N1C[C@H]1CCCN1C[C@H](Cc1ccccc1)N1C[C@H](Cc2ccc(O)cc2)N(CCc2ccccc2)C1=S was read as ClpP mod -4.9% and CtBP-E1A blk -9.2.
Screening CC(C)NC(=O)C1Cc2c(-c3ccc(Cl)cc3)ccnc2O1 (stereo unspecified) returned ClpP mod -7.7% and CtBP-E1A blk 6.9.
Screening CC(C)C(=O)N1CCC1(C)C(=O)Nc1ccc2[nH]ccc2c1 (stereo unspecified) returned ClpP mod -1.6% and CtBP-E1A blk 10.3.
For O=C(NCc1cccc(C(F)(F)F)c1)C1C(=O)Nc2ccccc2C(=O)N1Cc1ccccc1 (stereo unspecified) the results were ClpP mod inconclusive and CtBP-E1A blk -15.8.
For CC1(C(=O)NS(=O)(=O)Cc2ccccc2)CCN1C(=O)C/C=C/c1ccccc1 (stereo unspecified) the results were ClpP mod -1.9% and CtBP-E1A blk 7.3.
CC1(C(=O)NCc2ccccc2)CN(S(C)(=O)=O)CC(=O)N1CCCN1CCOCC1 (stereo unspecified) was read as ClpP mod 0.5% and CtBP-E1A blk 2.1.
For CCOC1=C2[C@H](c3ccccc3Cl)N(S(=O)(=O)c3ccc(C)cc3)C[C@H]2C(C#N)(C#N)C(C#N)(C#N)C1 the results were ClpP mod -1.6% and CtBP-E1A blk 5.1.

Reprinted at random: 2 entries already listed.
Screening CC(C)NC(=O)C1Cc2c(-c3ccc(Cl)cc3)ccnc2O1 (stereo unspecified) returned ClpP mod -7.7% and CtBP-E1A blk 6.9.
For CCOC1=C2[C@H](c3ccccc3Cl)N(S(=O)(=O)c3ccc(C)cc3)C[C@H]2C(C#N)(C#N)C(C#N)(C#N)C1 the results were ClpP mod -1.6% and CtBP-E1A blk 5.1.

The list is partial; rates above refer to the full screens.
